# Compound activity: PubChem, National Center for Advancing Translational Sciences (NCATS)
# GLA inh pH 4.5 – qHTS Assay for Inhibitors of Human alpha-Galactosidase at pH 4.5; Alpha-galactosidase A (Homo sapiens), P06280; purified enzyme, 4-MU-alpha-Gal fluorescence, pH 4.5; activity change, negative = inhibition, % at 105 µM; 230,000 tested, under 10 active; AID 1467, 2008; inconclusive = small, poorly fitted or top-dose-only inhibition, or a rising curve; inactive = flat fitted curve, though single readings scatter; no compound was filed as active;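 further: 0% = full activity with enzyme and -100% = basal without enzyme; dose as in the result columns while the protocol names 77 µM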
# Target sequence (P06280 whole entry, looked up): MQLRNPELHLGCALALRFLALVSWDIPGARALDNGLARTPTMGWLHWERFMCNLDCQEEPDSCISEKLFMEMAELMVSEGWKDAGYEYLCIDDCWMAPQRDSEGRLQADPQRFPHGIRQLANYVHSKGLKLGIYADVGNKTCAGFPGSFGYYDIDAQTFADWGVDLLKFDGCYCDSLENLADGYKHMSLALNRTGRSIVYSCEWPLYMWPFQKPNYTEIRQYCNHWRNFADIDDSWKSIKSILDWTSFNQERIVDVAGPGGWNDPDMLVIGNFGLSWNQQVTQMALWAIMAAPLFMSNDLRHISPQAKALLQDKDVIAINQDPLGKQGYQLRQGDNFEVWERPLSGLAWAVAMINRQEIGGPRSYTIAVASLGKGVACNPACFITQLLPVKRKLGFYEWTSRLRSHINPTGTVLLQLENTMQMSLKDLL
# Rango-impB inh – qHTS Assay for Inhibitors of Rango (Ran-regulated importin-beta cargo) - Importin beta complex formation; Importin subunit beta-1 (Homo sapiens), Q14974; Rango CFP/YFP FRET sensor + importin beta, 45 min; Potency, µM (titrated, usually from 92.2 µM), inactives show top-dose inhibition of complex formation; 340,000 compounds, 0.031% hits; active = rising FRET ratio curve, often small or poorly fitted; inconclusive = mostly compound fluorescence or quenching in the first reads; inactive = flat curves in all reads;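 further: potency means the concentration at half of the fitted maximal effect; 0% = DMSO wells and 100% = buffer wells lacking importin beta; nearly all actives have a fitted effect of over 15% in size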
#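 FRET biosensor Rango (snurportin 1 IBB between N-terminal EYFP and C-terminal Cerulean), 50 nM in PBS/1 mM DTT/0.02% Tween-20/0.1% BSA, preincubated 5 min RT with compound; 0.125 microM importin beta added, 45 min RT, CFP/YFP FRET ratio read.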
# miR-21 FLuc – qHTS Assay for Modulators of miRNAs and/orActivators of miR-21; HeLa miR-21 FLuc reporter, luciferase, 48 h; Potency, µM (highest dose often 38.3 µM), inactives show at the top dose reporter change, positive = more light; 340,000 tested, under 10 active; AID 2288, 2010; active = well fitted rising curve with a large enough effect; inconclusive = small, poorly fitted or top-dose-only effect; inactive = no such curve, though single readings can be large or run the other way;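 further: % of control where 0% means no effect; miR-21 action dims this reporter so a rising signal means less miR-21 action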
#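 HeLa cells stably expressing CMV-driven firefly luciferase with a downstream miR-21 binding sequence, endogenously expressing miR-21, were treated with titrations (up to about 40uM final) for 48 hours at 37 degree Celsius. Luciferase luminescence was read after lysis.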
# Rango dissoc inh – qHTS Assay for Inhibitors of RanGTP induced Rango (Ran-regulated importin-beta cargo) - Importin beta complex dissociation. Snurportin-1 (Homo sapiens) + GTP-binding nuclear protein Ran (Homo sapiens) + Importin …. Biochemical FRET Rango-importin beta, RanGTP-induced dissociation. Potency, µM (highest dose often 46.1 µM), inactives show at the highest dose activity change, negative = inhibition. 340,000 compounds, 0.071% hits. AID 540253, 2011; active means falling FRET ratio curve, often poorly fitted, with flat reads before Ran was added; inconclusive means other falling curves, or compound fluorescence or quenching; inactive means flat or rising ratio curve;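 further: potency means the concentration at half of the fitted maximal effect; % of control where 0% means no effect; nearly all actives have a fitted effect of over 45% in size; -100% = wells without RanGTP and RCC1; the record marks most hits as doubtful in a second field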
#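 Compounds preincubate 5 min with complex of recombinant Rango and importin beta in PBS with 1 mM DTT. Ran (0.6 uM) loaded with 2 mM GTP plus 0.2 uM RCC1 starts dissociation; FRET is recorded 45 min later.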
# An asterisk follows results filed as active; ? = inconclusive; · = no result given; & = joins results of further samples. Not all compounds are listed; rates above refer to the full screens.
# Preview:
SMILES,GLA inh pH 4.5,Rango-impB inh,miR-21 FLuc,Rango dissoc inh
Cc1nc(-c2ccc(F)cc2)c(CC(=O)N(C)CC(=O)Nc2ccccc2Cl)s1,·,-1.8%,·,-7%
Cc1[nH]c(C)c(S(=O)(=O)N2CCN(c3ccccc3F)CC2)c1C(=O)N1CCCC1,·,-0.4%,-2%,16%
O=S(=O)(c1ccc(F)cc1)n1ccc2cccnc21,-7,0.1%,-27%,3%
Cc1csc(SCC(=O)Nc2cccc(S(=O)(=O)N3CCOCC3)c2)n1,-7,-2.1%,-4%,-7%

# Main list (from the top)
SMILES,GLA inh pH 4.5,Rango-impB inh,miR-21 FLuc,Rango dissoc inh
Cc1nc(-c2ccc(F)cc2)c(CC(=O)N(C)CC(=O)Nc2ccccc2Cl)s1,·,-1.8%,·,-7%
Cc1[nH]c(C)c(S(=O)(=O)N2CCN(c3ccccc3F)CC2)c1C(=O)N1CCCC1,·,-0.4%,-2%,16%
O=S(=O)(c1ccc(F)cc1)n1ccc2cccnc21,-7,0.1%,-27%,3%
Cc1csc(SCC(=O)Nc2cccc(S(=O)(=O)N3CCOCC3)c2)n1,-7,-2.1%,-4%,-7%
O=C(Nc1cccc(C(=O)O)c1)/C(=C/c1ccc2c(c1)OCO2)NC(=O)c1cccc(Br)c1,-20,?,0%,-23%
Cc1cccc(-c2nc(CS(=O)CC(=O)NC3CCCCC3)c(C)o2)c1 (stereo unspecified),·,2.5%,-2%,-4%
CCN(CC)CCNC(=O)c1ccc(NC(=O)c2ccc(S(=O)(=O)N3CCCCCC3)cc2)cc1,·,-1.7%,·,-10%
C=CCOC(=O)c1[nH]c2c(c1C)C(=O)CC(c1ccco1)C2 (stereo unspecified),3,6.8%,16%,-23%
CN(C(=O)c1sc2nc(N3CCOCC3)c3c(c2c1N)CCCC3)c1ccccc1,11,-1.3%,17%,-5%
Cc1ccccc1C1NC(c2ccccc2C)C([N+](=O)[O-])C(C)(C)C1[N+](=O)[O-] (stereo unspecified),-16,0.0%,25%,3%
COc1ccc(-c2oc3ncn(CCN4CCOCC4)c(=N)c3c2-c2ccc(OC)cc2)cc1,-15,2.8%,14%,4%
CCOC(=O)c1c(C)[nH]c(C)c1S(=O)(=O)NCCN1CCN(c2ccccc2F)CC1,·,0.8%,2%,0%
CCOC(=O)N=Nc1c(O)n(Cc2ccccc2)c2ccccc12,-28,-2.1%,-8%,-13%
COc1ccccc1CNC(=O)/C=C/c1ccc(Br)o1,-9,0.2%,1%,-5%
CN(C)CCNC(=O)CCn1nc(-c2ccc(Cl)cc2)ccc1=O,·,2.9%,-5%,3%
O=C(CN1C2CCCC1CC(NC(=O)c1ccco1)C2)Nc1ccccc1C(F)(F)F (stereo unspecified),-3,-0.9%,-4%,0%
COc1ccc2c(c1)C(=O)[C@H](O)[C@@H](c1ccc(OC)c(Br)c1)O2,-4&0,-1.4%,4%,-17%
NNC(=O)CC12CC3CC(C1)CC(n1ncnn1)(C3)C2,5,-6.4%,1%,12%
Cc1ccc(NS(=O)(=O)c2ccc(CCC(=O)N3CCCC3)cc2)cc1,1,3.9%,-1%,1%
CCC(C(=O)Nc1ccc(S(=O)(=O)N(C)C2CCN(C)CC2)cc1)c1ccccc1 (stereo unspecified),·,-6.3%,·,5%
COc1ccc(-c2ccc(SCC(=O)N3CC(=O)Nc4ccccc43)nn2)cc1,·,2.2%,-21%,2%
COc1ccc(/C=C/c2c(-c3ccccc3OC)sc3ccccc23)cc1OC,·,-3.3%,·,2%
CN(CC(=O)NCc1ccco1)C(=O)C1CC(=O)N(c2ccc3c(c2)OCCO3)C1 (stereo unspecified),·,-0.5%,·,2%
COc1ccccc1/C=C/C=N/n1c(-c2ccc(Cl)cc2)n[nH]c1=S,-14,0.8%,3%,28%
O=C(Nc1cc(F)cc(F)c1)c1ccc(NCCCN2CCCCCC2)c([N+](=O)[O-])c1,3,-0.3%,-14%,-17%

# A draw from above in order of heavy-atom count, high to low.
SMILES,GLA inh pH 4.5,Rango-impB inh,miR-21 FLuc,Rango dissoc inh
CCN(CC)CCNC(=O)c1ccc(NC(=O)c2ccc(S(=O)(=O)N3CCCCCC3)cc2)cc1,·,-1.7%,·,-10%
O=C(Nc1cccc(C(=O)O)c1)/C(=C/c1ccc2c(c1)OCO2)NC(=O)c1cccc(Br)c1,-20,?,0%,-23%
O=C(CN1C2CCCC1CC(NC(=O)c1ccco1)C2)Nc1ccccc1C(F)(F)F (stereo unspecified),-3,-0.9%,-4%,0%
COc1ccc(-c2ccc(SCC(=O)N3CC(=O)Nc4ccccc43)nn2)cc1,·,2.2%,-21%,2%
Cc1csc(SCC(=O)Nc2cccc(S(=O)(=O)N3CCOCC3)c2)n1,-7,-2.1%,-4%,-7%
NNC(=O)CC12CC3CC(C1)CC(n1ncnn1)(C3)C2,5,-6.4%,1%,12%

# Carrying on.
SMILES,GLA inh pH 4.5,Rango-impB inh,miR-21 FLuc,Rango dissoc inh
O=C(NNC1CC(=O)N(c2ccc(Br)cc2)C1=O)c1cccnc1 (stereo unspecified),6,2.6%,0%,-13%
O=C(CSc1ncnc2sc3c(c12)CCCC3)NC1CCS(=O)(=O)C1 (stereo unspecified),·,?,·,-8%
O=C(Nc1ccon1)c1cccc(C(F)(F)F)c1,-4,-2.3%,-5%,1%
Cc1cc(Cl)c(S(=O)(=O)Nc2ccc3c(c2)OCCO3)cc1OCC(N)=O,8,1.5%,-20%,1%
COc1ccc(CNC(=O)C(CCSC)NS(=O)(=O)c2ccccc2F)cc1 (stereo unspecified),-6,-4.9%,-1%,3%
Cc1nn(C)c(C)c1CN(C)C(=O)c1cc2nc(-c3ccco3)cc(C(F)(F)F)n2n1,2,?,-5%,?
COc1ccc(-c2cc(N)n(S(=O)(=O)c3c(F)c(F)c(F)c(F)c3F)n2)cc1OC,-4,0.2%,?,22%
Cc1cccc(C(=O)NC(=S)Nc2c(C)n(C)n(-c3ccccc3)c2=O)c1,·,0.9%,·,0%
COc1ccc([C@H]2CC(=O)C=C(c3ccc(C(=O)O)cc3)C2)cc1OC,·,-4.2%,·,-6%
Cc1ccc(Cl)cc1NC(=O)C(NS(=O)(=O)c1cccs1)c1ccccc1 (stereo unspecified),-7,1.9%,-1%,-5%
O=C(COc1ccccc1)Nc1ccccc1N1CCN(c2ccccc2)CC1,-5,0.6%,-3%,12%
CCOc1ccc(S(=O)(=O)Nc2ccc(S(=O)(=O)N3CCOCC3)cc2)cc1,11,-1.4%,-5%,-5%
COc1cnc(-c2ccccn2)nc1Sc1ccccc1,1,4.0%,24%,1%
CC(C)CN1C(=O)NC(NC(=O)c2ccco2)(C(F)(F)F)C1=O (stereo unspecified),-8,3.1%,3%,27%
C=CCN1C(=O)C(O)(CC(=O)c2c(C)n[nH]c2C)c2cc(Br)ccc21 (stereo unspecified),-7,0.8%,-3%,-8%
FC(F)(Cl)c1nnc2ccc(Cl)nn12,2,0.7%,?,1%
NNC(=O)c1cnn(-c2ccccc2)c1C(F)(F)F,2,-0.2%,-5%,-2%
COc1ccc(S(=O)(=O)N2CCC(C(=O)Oc3ccc(C)cc3)CC2)cc1OC,·,-0.2%,·,-2%
CC(=O)Nc1cccc2c1C(=O)N(c1cccc(C)c1)C2=O,-5,-0.3%,1%,-9%
O=C(c1cc(-c2ccc(Cl)cc2)on1)N1CCCC1,·,-4.0%,-81%,-13%
CC(=O)c1cccc(CN2CCCC(CCC(=O)NCc3ccc(C)o3)C2)c1 (stereo unspecified),0,0.1%,5%,-7%
S=c1[nH]nc(COc2ccccc2)n1/N=C/c1ccc(Br)cc1,·,2.3%,2%,-2%
CN(C)C(CNC(=O)c1cccc(S(=O)(=O)NCc2ccccc2)c1)c1ccccc1 (stereo unspecified),·,3.4%,·,-11%
O=C(CN1c2cccc3cccc(c23)S1(=O)=O)NC1CCCCC1,·,0.7%,·,-1%
CC1CCCC(C)N1C(=O)CNCc1ccc2c(c1)OCO2 (stereo unspecified),·,-0.6%,-5%,-13%

# New compounds follow
SMILES,GLA inh pH 4.5,Rango-impB inh,miR-21 FLuc,Rango dissoc inh
CCC(C(=O)NCc1ccco1)N(C(=O)CNS(=O)(=O)c1ccccc1)c1ccccc1C (stereo unspecified),2,0.0%,-1%,0%
COc1cc2c(cc1OC)C(c1ccc(Br)cc1)NC(=O)C2 (stereo unspecified),·,2.2%,-12%,-3%
COc1cccc(CNS(=O)(=O)c2cc3c4c(c2)CCN4C(=O)CC3)c1,·,-1.5%,·,-10%
N/C(Cn1cncn1)=N\NC(=O)c1ccc(Cl)cc1Cl,2,-3.5%,-1%,0%
CCCn1c(=O)c(C(=O)NCCCc2ccccc2)c(O)c2ccccc21,·,4.0%,-3%,2%
Cc1ccc(S(=O)(=O)N(C)CC(=O)OCC(=O)NC(=O)Nc2ccc3c(c2)OCCO3)cc1,-7,1.1%,-27%,2%
CCOC(=O)C/C(=N\Nc1ncnc2ccccc12)c1ccccc1,·,1.8%,-47%,-14%
COC(=O)Cn1c(=NC(=O)c2ccc(S(=O)(=O)N3CCOCC3)cc2)sc2cc(S(N)(=O)=O)ccc21,·,-1.1%,-7%,-8%
CCOc1ccc(NC(=O)CCC(=O)NNS(=O)(=O)c2ccccc2[N+](=O)[O-])cc1,5,-5.8%,1%,15%
CC(C)CC(NC(=O)C1CCC(C)CC1)C(=O)N1CCN(c2ccccn2)CC1 (stereo unspecified),0,0.8%,-1%,-6%
CCC(=O)N1CCCc2cc(S(=O)(=O)N3CCN(c4ccccc4F)CC3)ccc21,-15,-2.3%,16%,15%
Cc1cc(C(=O)NCc2cccs2)no1,5,0.1%,-7%,0%
COc1cc(C(=O)Oc2cccc(/C=N/NC(=O)c3cccnc3)c2)cc(OC)c1OC,·,1.3%,13%,-5%
CC#CCN1c2ccccc2[C@]23C[C@@H](C(=O)OC)N(C(=O)NCCBr)C2=NC(C(=O)OC)=C(C(=O)OC)[C@H]13,·,3.9%,·,9%
O=c1[nH]c(=O)c2nnc(N/N=C\c3ccc(O)cc3)nc2[nH]1,-1,-2.5%,4%,10%
COc1ccc(C2/C=C\CN(Cc3ccco3)CC(=O)N2Cc2ccc(F)cc2)cc1 (stereo unspecified),-6,-3.4%,2%,3%
CN(C)S(=O)(=O)c1ccc(=S)[nH]c1,2,-3.8%,-2%,2%
COc1ccc(OC)c(NC(=O)c2sc3nc(C)cc(C)c3c2N)c1,·,?,-24%,?
O=C(Nc1ccc([N+](=O)[O-])cc1)Nn1cnnc1,·,-2.5%,-1%,-2%
O=C(Nc1ccc(S(=O)(=O)Nc2nccs2)cc1)/C(=C/c1ccccc1Cl)NC(=O)c1ccccc1,-3,5.7%,-13%,0%
Cc1onc(-c2ccccc2)c1CNS(=O)(=O)c1cccc(Cl)c1,-7,-1.2%,6%,17%
CCOC(=O)N/N=C\c1ccccc1OC/C=C/c1ccccc1,·,-0.3%,-29%,?
CCOc1ccc(OCCCCNC(C)(C)C)cc1,6,0.9%,-4%,10%
CSc1ccccc1C(=O)Nc1ccccc1C(=O)NC(C)C,2,-6.0%,-4%,20%
Cc1n[nH]c(C)c1NC(=O)CSc1nnnn1-c1cccc(F)c1,·,0.2%,·,6%
CC(NC(=O)CNC(=O)C1O[C@@H]2OC(C)(C)O[C@@H]2[C@H]2OC(C)(C)O[C@@H]12)C(=O)O (stereo partly specified),-3,-0.6%,1%,1%
Cc1ccc(CNC(=O)C2CCC(=O)N2Cc2ccc(F)cc2)cc1 (stereo unspecified),·,-5.1%,0%,1%
